Screening data: PubChem BioAssay, Fisher Drug Discovery Resource Center
NPYLR7 ag – activates Aedes aegypti NPYLR7 receptor | HEK293T NPYLR7/Galpha15, GCaMP6s calcium fluorescence | 0.15% of 270,000 active | activation, % at 10 µM | AID 1259423; in the data active means activation above about 40%;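 further: 0% = vehicle and 100% = reference agonist at the receptor; some compounds past the cut are filed as inactive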
NPYLR7 ag max-min – recorded beside NPYLR7 ag, whose call it bears; activation, %; measured here: Max-Min RFU normalised activation; some inactives read as strong as hits;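 span of the calcium signal over five minutes; 0% = vehicle and 100% = native peptide agonist; compound fluorescence can raise it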
Numbers without * were called inactive. Some of the compounds tested. The share of hits here may be higher or lower than overall.

Start of the data: the first 2 records, ahead of the listing:
Molecule | NPYLR7 ag | NPYLR7 ag max-min
O=C(Nc1cccc(Cl)c1)c1nn2c(C(F)(F)F)cc(-c3cccs3)nc2c1Cl | -13 | -17
O=C1CCCCC1Sc1nc2sccc2c(=O)n1-c1ccccc1 (stereo not drawn) | -6 | -6

The list itself, from the first entry:
Molecule | NPYLR7 ag | NPYLR7 ag max-min
O=C(Nc1cccc(Cl)c1)c1nn2c(C(F)(F)F)cc(-c3cccs3)nc2c1Cl | -13 | -17
O=C1CCCCC1Sc1nc2sccc2c(=O)n1-c1ccccc1 (stereo not drawn) | -6 | -6
O=C(NCc1cc(-c2ccccc2)on1)c1ccc2oc(Cc3ccccc3)nc2c1 | 4 | 5
CC(C)=CCC/C(C)=C/CC/C(C)=C/CC/C(C)=C/CC/C(C)=C/CC/C(C)=C/CC/C(C)=C/CC/C(C)=C/CC/C(C)=C/CO | -5 | -10
CCSc1nnc2n1CCN2c1ccccc1 | -3 | -5
CN(C)c1ccc(Nc2nccc(Oc3ccc(F)cc3)n2)cn1 | 5 | 5
CCN(CC)S(=O)(=O)c1ccc(Cl)c(C(=O)OC)c1 | 1 | 0
CCCCCC(=O)N1C[C@H](C(N)=O)[C@H]2c3ccccc3N(CCOC)C(=O)[C@]21C | 6 | 15
CC(=O)N(C)CC(=O)NCc1ccc(Br)cc1Cl | 7 | 1
CC1c2ccsc2CCN1C(=S)NC1CC2CCC1C2 (stereo not drawn) | -1 | -2
N#Cc1cccnc1N(CCO)CCc1ccccc1 | 1 | -2
COCCCNC(=O)CSc1nnc(Nc2ccccc2Cl)s1 | 0 | -6
CCCCCN(C)c1nc(-c2ccc(Br)cc2)nc2ccccc12 | -3 | 6
CCn1ccnc1CN(C)CC1CCCN(CCc2ccccc2C)C1 (stereo not drawn) | 2 | 0
Cc1ccc(CC23CN4CC(CN(C4)C2)C3=O)c(C)c1 | 3 | 2
O=C1c2nc(-c3cccnc3)ccc2CN1C1(C(=O)NCc2ccccc2)CC1 | 10 | 32
COc1ccc(NC(=O)CNC(=O)CNC2CC2)cc1 | -9 | -19
CCCC1(C)NC(=O)N(CCC2CCCCN2C)C1=O (stereo not drawn) | 9 | 4
CCC(C)C(NC(=O)Nc1cccc(C(F)(F)F)c1)C(=O)Nc1nnc(-c2ccc(Cl)cc2)s1 (stereo not drawn) | 9 | 1
O=C(NCc1ccco1)c1coc(CN(Cc2ccc(F)cc2)Cc2ccc(C(F)(F)F)cc2)n1 | 6 | 16
Cc1cc(C(=O)N2CCN(C/C=C/c3ccccc3)CC2)n2nc(C(C)(C)C)cc2n1 | 3 | 12
C=CCNC(=O)c1cc2c(=O)n3cccc(C)c3nc2n1C | 0 | 4
COc1cccc(NC(=O)N(CC(=O)N(CCc2ccc(OC)c(OC)c2)Cc2cccs2)C(C)C)c1 | 12 | 15
Cc1cc(C(=O)N(C)Cc2snnc2C)nc(C)n1 | -2 | -3
COc1ccccc1C(C)NCC(=O)Nc1c(F)cccc1F (stereo not drawn) | 0 | -1
CCCCS(=O)(=O)N1CCN(c2nc3cc(C)c(C)cc3nc2C(=O)OCC)CC1 | 5 | 3
Cc1ccc2nc(-c3cccc(F)c3)c(NC(C)(C)C)n2c1 | -2 | 0
COc1ccc2nc(-c3cccc(NC(=O)Nc4cc(OC)c(OC)c(OC)c4)c3)cn2n1 | 0 | -1
Cc1ccc(-c2c(C)n([O-])c3c([n+]2=O)CCCCC3)o1 | -12 | -19
CCOC(=O)c1ccc2c(c1)nc(SCc1ccc(Br)cc1F)n2Cc1ccc(C(F)(F)F)cc1 | -6 | -8
COC(=O)c1ccc2c(=O)n(Cc3ccc(C(=O)NCCN4CCCC4)cc3)c(=S)[nH]c2c1 | 1 | -5
COc1ccc2sc(N(Cc3cccnc3)C(=O)c3cc(C)no3)nc2c1 | -2 | 1
Cc1ccc(C(=O)CSc2nnc(Cc3cccs3)n2C2CC2)s1 | -3 | 0
O=NN(CCCl)C(=O)NC1CCCCC1 | -7 | -2
Cc1ccc(C(=O)Cn2nc(-c3ccco3)c3sc(C)nc3c2=O)cc1 | 2 | 0
CCOC(=O)c1ccc2c(c1)N(Cc1cc(Cl)ccc1OC)C(=O)C(C)S2 (stereo not drawn) | 4 | 2
Cc1ccc(CN(CCc2ccccc2)C(=O)Cn2ccc(=O)[nH]c2=O)s1 | -3 | -4
CCc1nc(N)c(C#N)c(-c2cccs2)c1C | 2 | 1
COc1cccc(N2CCN(Cc3cn[nH]c3C(=O)O)C(C)C2=O)c1 (stereo not drawn) | 16 | 8
O=C(COc1ccccc1)N1CCN(c2cc(Oc3ccc(F)cc3Cl)ncn2)CC1 | -7 | 7
COc1cccc(N2CC(C)Cn3c2nc2c3c(=O)n(CC(C)C)c(=O)n2C)c1 (stereo not drawn) | 6 | 3
CCOc1ccc(C2CC(c3ccccc3)=NN2C(=O)CN2CCC(C)CC2)cc1 (stereo not drawn) | -4 | 0
CN(CCc1cnn(C)c1)C(=O)C1CCN(c2nc(-c3ccccc3)nc3c2CCC3)CC1 | -2 | -3
NC1(CNS(=O)(=O)c2cc(Cl)sc2Cl)CCCCC1 | -1 | -2
COC(=O)c1sc(NC(=O)CSc2nnc3cc(C)c4ccccc4n23)c(C(=O)OC)c1C | -5 | -9
O=C(c1ccc(Oc2ccccc2)cc1)C1CCCN(C(=O)CCn2cccn2)C1 (stereo not drawn) | 4 | -6
O=C1NCC(c2ccc(Cl)cc2)Cc2[nH]c(Cc3cccnc3)nc21 (stereo not drawn) | 1 | 19
CC(C)NC(=O)C(C)NC(=O)C12CC3CC(CC(C3)C1)C2 (stereo not drawn) | 6 | 4
COc1cccc(Cc2nsc(N3CCN(CCNC(=O)Nc4cccc(Br)c4)CC3)n2)c1 | -10 | -15
Cc1c(Br)cccc1C(=O)NC1CCN(C(N)=O)CC1 | 0 | 1
COc1cn(CC(=O)Nc2cc(C)cc(C)c2)c(CN2CCN(c3ccccc3)CC2)cc1=O | -4 | -4
CCOc1cccc2sc(=NC(=O)c3nn(C)cc3C)n(C)c12 | 0 | 6
CC1COCCN1C(=O)c1c[nH]c(=O)[nH]1 (stereo not drawn) | 2 | -1
CCOC(=O)c1nn(-c2ccc(OC)cc2)c(=O)c2c(NC(=O)CC(C)C)scc12 | -4 | -4
CN1CCN(N=Cc2ccc(O)cc2)CC1 | 12 | 10
Cc1cnc(=O)[nH]c1SCC(=O)N1CCCCC1 | 1 | -1
Cc1ccc(C(=O)Nc2c(N)nc(SCC(=O)Nc3ccc(C(F)(F)F)cc3)[nH]c2=O)cc1 | 0 | -1
COc1ccc(OC)c(-c2cnc(-c3cccc(CNC(=O)c4ccc(F)c(F)c4)c3)[nH]2)c1 | -1 | -8
CCc1nc2n(n1)C(=O)C(C(c1ccc(OC)cc1)N1CCOCC1)S2 (stereo not drawn) | -5 | -9
CC(C)(C)c1cc(NC(=O)CN(Cc2ccccc2)C(=O)Nc2ccccc2Br)n(-c2ccc(Cl)c(Cl)c2)n1 | 1 | 9

7 entries from above, with two lines to a compound:
The line under a structure holds: NPYLR7 ag, NPYLR7 ag max-min
- COc1cn(CC(=O)Nc2cc(C)cc(C)c2)c(CN2CCN(c3ccccc3)CC2)cc1=O
→ -4, -4
- Cc1ccc(C(=O)CSc2nnc(Cc3cccs3)n2C2CC2)s1
→ -3, 0
- CC(C)NC(=O)C(C)NC(=O)C12CC3CC(CC(C3)C1)C2 (stereo not drawn)
→ 6, 4
- Cc1ccc(CN(CCc2ccccc2)C(=O)Cn2ccc(=O)[nH]c2=O)s1
→ -3, -4
- COc1cccc(N2CCN(Cc3cn[nH]c3C(=O)O)C(C)C2=O)c1 (stereo not drawn)
→ 16, 8
- COc1cccc(N2CC(C)Cn3c2nc2c3c(=O)n(CC(C)C)c(=O)n2C)c1 (stereo not drawn)
→ 6, 3
- CCOC(=O)c1ccc2c(c1)N(Cc1cc(Cl)ccc1OC)C(=O)C(C)S2 (stereo not drawn)
→ 4, 2

The listing continues.
Molecule | NPYLR7 ag | NPYLR7 ag max-min
CC(C)CN(Cc1c(-c2ccc(F)cc2)noc1N1CCN(C)CC1)C(=O)C1CC1 | 5 | 9
Cc1nc(CN(C)Cc2cnc(N3CCOCC3)s2)no1 | 9 | 3
CC(=O)N1CCOC(CNC(=O)c2ccoc2C)C1 (stereo not drawn) | -3 | -2
COC(=O)Cn1c(=O)c2c(nc3n(-c4ccc(Br)cc4)c(C)cn23)n(C)c1=O | 7 | 4
CCN(CC)C(=O)Oc1ccc2c(ccn2Cc2cc(C(F)(F)F)ccc2Cl)c1-c1cc(F)cc(F)c1 | 11 | 3
COc1ccc(CNC(=O)CSc2nccn3nc(-c4cccc5ccccc45)cc23)cc1 | -1 | -4
CC(C)(O)C#Cc1ccc(C(=O)N2CCOc3ccc(CN4CCc5ccccc5C4)cc3C2)cc1 | -11 | -12
CCCCN(C)Cc1c(O)ccc2c(=O)c(-c3ccccc3OC)coc12 | -6 | -7
COc1cc(CNC(=O)c2ccc(-c3ccc4c(c3)OCCO4)s2)cc(OC)c1 | 4 | 3
O=C(NCc1cccnc1-n1ccnc1)C1CCS(=O)(=O)CC1 | 2 | -1
N#Cc1ccc(S(=O)(=O)N(Cc2ccc3c(c2)OCO3)C2CCCC2)cc1 | 9 | 10
N#Cc1ncn(CC(=O)Nc2ccnn2Cc2cccc(Cl)c2)n1 | -2 | -2
O=C(c1ccc(Br)cc1)c1ccco1 | 0 | -1
Cn1cnc(S(=O)(=O)NCCc2ccccc2F)c1Cl | -12 | -17
C=C1c2cc(OCC)ccc2NC(=O)N1c1ccccc1 | 6 | 7
CCN1CC(=Cc2cccs2)C(=O)C(=Cc2cccs2)C1 | 14 | 10
CC(=O)N1N=C(c2ccccc2)CC1c1cc(Br)ccc1O (stereo not drawn) | 0 | -1
CCc1nnc2n1CC(CN(Cc1cn3ccccc3c1C#N)Cc1cn3ccccc3c1C#N)CC2 (stereo not drawn) | 1 | -2
O=C(c1ccc([N+](=O)[O-])cc1[N+](=O)[O-])n1nnc2ccccc21 | 12 | 10
CCOC(=O)c1cc(-c2ccc(N3CCN(C(=O)c4c(F)cc(OC)cc4F)CC3)cc2)n(-c2ccccc2OC)n1 | 8 | 0
COc1ccc(S(=O)(=O)NCCCN2CCOCC2)cc1N1CCN(C(=O)c2cc(F)cc(C(F)(F)F)c2)CC1 | 23 | 13
Cc1c(C(=O)N(C)CCc2ccccn2)cnc2c(-c3ccc(F)cc3)cnn12 | -10 | -6
CCCn1c(=O)c2c(nc3n2CCCN3C2CCCCC2)n(C)c1=O | 2 | 2
O=C(Nc1ccnn1C1CCN(Cc2ccc3c(c2)OCCO3)CC1)c1ccccc1 | 1 | -3
CC(C)CC(N=C1NS(=O)(=O)c2ccccc21)C(=O)Nc1ccc2c(c1)OCCCO2 (stereo not drawn) | 8 | 6
COc1cc(C2NC(=O)c3sc4nc(C)cc(C)c4c3N2)ccc1OCC#N (stereo not drawn) | 11 | 6
CCOC(=O)N1CCN(S(=O)(=O)c2ccc3c(c2)C(C)C(=O)N3)CC1 (stereo not drawn) | 4 | 16
Cc1nc(Nc2ccc(NC(=O)Nc3ccc4c(c3)OCO4)cc2)cc(-n2cccn2)n1 | -2 | -8
COCC(=O)N1CCN(c2ccc(F)cc2F)C(=O)C1C (stereo not drawn) | 1 | 11
O=C(c1cnn2c1CCCC2)N(Cc1ccc2c(c1)OCO2)C1CC1 | -2 | -6
O=C(CCn1c(=O)oc2cc(Cl)ccc21)NC1=NCCS1 | 3 | 4
COc1ccccc1C(=O)N(CCN1CCOCC1)Cc1c(-c2ccccc2)noc1N(C)C(C)C | 12 | 12
Cc1cnc(C(=O)N2CCCC(N3CCN(c4ccccc4C)CC3)C2)cn1 (stereo not drawn) | 4 | 1
CC(C)CNC(=O)CCN(CCc1ccccc1)c1nc(-c2ccccc2Cl)nc2cc(Cl)ccc12 | -7 | -1
COc1cccc(CCNC(=O)c2cc(N(C)C3CCCCC3)nc3ccccc23)c1 | 20 | 39

Record cards, from the list above.
`CC(C)CNC(=O)CCN(CCc1ccccc1)c1nc(-c2ccccc2Cl)nc2cc(Cl)ccc12` reads NPYLR7 ag = -7; NPYLR7 ag max-min = -1
`COc1cccc(CCNC(=O)c2cc(N(C)C3CCCCC3)nc3ccccc23)c1` reads NPYLR7 ag = 20; NPYLR7 ag max-min = 39
